Screens: PubChem BioAssay, several laboratories
Env fusion inh: blocks HIV Env-driven cell-cell fusion. HeLa-JRFL Env/CEM21 cell fusion, luciferase. AID 651610. hit rate 1.1% among 360,000. inhibition, % at 12.3 µM;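 active means mean replicate inhibition score of at least 50 and every replicate individually at or above 50; inconclusive means only one of the two criteria met; inactive means mean below 50 and not all replicates reaching 50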;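 further: 0% = plate neutral controls and 100% = maraviroc near 300 nM; one replicate is shown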
eIF4H inh: inhibitors of RNA binding by human eIF4H | hit rate 0.94% among 290,000 | Q15056 | AID 2012 | eIF4H fluorescence polarization binding assay | inhibition, % at 35 µM;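 active means 50% or more with normal probe brightness, or confirmed in later tests; inconclusive means above 50% with abnormal brightness, or retests that disagree; inactive means below 50% or failed in later tests; about a fifth of its hits are not listed in these tables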;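 further: calls also rest on retests at 20 µM and on dose response follow-up; 0% = protein and probe with vehicle and 100% = probe without protein; strong numbers were not always called active; many hits fall short of the cut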
CSC inhib: cancer stem cell inhibition; inhibition, % at 7.5 µM; cancer stem cell-like cells viability, luminescence; AID 2717; hit rate 1.1% among 300,000;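 active means mean at 75% or more and at least half the replicates too; inconclusive means mean and replicates disagree; tested in HMLE shEcad cells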;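 further: 0% = median of negative and 100% = median of positive control wells; the first replicate is given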
Rce1 inhib: yeast Ras-converting enzyme inhibition; Q03530; yeast membranes, quenched prenylated peptide cleavage fluorescence; calls only; hit rate 0.27% among 290,000; AID 2563;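 active means fall in fluorescence gain of 50% or more versus controls, with final raw signal at or below 3038400; inconclusive means same 50% fall but final raw signal above 3038400; inactive means fall in fluorescence gain under 50%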;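 further: plate controls were neutral control wells for no effect and wells lacking membranes for full effect; tested at 10 µM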
Target sequence (Q03530 whole entry, looked up): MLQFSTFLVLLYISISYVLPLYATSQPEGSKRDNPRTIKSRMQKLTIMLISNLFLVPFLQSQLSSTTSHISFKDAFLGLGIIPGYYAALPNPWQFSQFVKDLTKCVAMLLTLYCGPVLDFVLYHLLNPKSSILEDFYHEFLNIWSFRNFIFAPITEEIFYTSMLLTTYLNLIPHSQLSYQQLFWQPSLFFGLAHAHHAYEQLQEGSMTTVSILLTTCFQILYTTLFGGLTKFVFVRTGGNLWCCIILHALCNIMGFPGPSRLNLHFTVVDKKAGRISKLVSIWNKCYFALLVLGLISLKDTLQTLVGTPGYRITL
UUG fidelity: modulators of start codon recognition fidelity in yeast. S. cerevisiae UUG-firefly luciferase reporter, luminescence/redox ratio. hit rate 0.13% among 350,000. activity score, % at 18.7 µM;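 active means replicate mean at a twofold rise or more, about +100% in these data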;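 further: firefly luciferase made from a UUG start codon reports start codon fidelity; reporter light over untreated wells divided by growth signal over untreated wells; some hits fall short of that in this replicate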
MT1-MMP act inh: blocks activation of human MT1-MMP; GFP/RFP ratio change, % at 20 µM; HT1080 RFP-PRO-GFP cells, GFP/RFP ratio fluorescence, overnight; percent of plate control window, DMSO zero; P50281; hit rate 0.061% among 360,000; AID 651647;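 active means GFP/RFP ratio change of at least 30% with cell ATP level not reduced by more than half and red fluorescence within 50% of control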; further: strong numbers were not always called active
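Material – HT1080 RFP-PRO-GFP cells · Control set – DMSO wells and RFP-L50D-GFP cells · Incubation – overnight cell settling, then overnight compound exposure, 37 °C, 5% CO2 · Compound dosing – single-point 20 µM compound, 1% DMSO · Read-out – GFP/RFP fluorescence ratio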
PABP FP inh: blocks human PABP binding to poly(A) RNA; fluorescence polarization; hit rate 1% among 290,000; inhibition, % at 35 µM;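 active means 50% or more with normal probe brightness, or confirmed in later tests; inconclusive means above 50% with abnormal brightness, or retests that disagree; inactive means below 50% or failed in later tests; about a fifth of its hits are not listed in these tables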;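 further: calls also rest on retests at 20 µM and on dose response follow-up; controls were probe without protein and protein plus probe with vehicle; some compounds called inactive have numbers as strong as hits; many hits fall short of the cut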
eIF4H inh retest: also measured in eIF4H inh; calls as there; inhibition, %; compound at 20 µM; confirmation average;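 mean of two retest wells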
PABP FP inh retest: recorded beside PABP FP inh, whose call it bears; inhibition, %; compound at 20 µM; confirmation repeats;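 mean of two retest wells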
MT1-MMP act inh RFP: also measured in MT1-MMP act inh; calls as there; RFP signal change, %; measured here: RFP expression control read;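 0 = vehicle wells; hits needed this value within 50% of zero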
* hit, by the source's call; i = inactive; ? = inconclusive; / = no result given; & = joins results of further samples. An excerpt, so the mix of outcomes need not match the whole.

SMILES	Env fusion inh	eIF4H inh	CSC inhib	Rce1 inhib	UUG fidelity	MT1-MMP act inh	MT1-MMP act inh RFP	PABP FP inh	others
CC(OC(=O)C1CSC2(c3ccc(F)cc3)CCC(=O)N12)C(=O)NC(N)=O (stereo not given)	15	1	-13	i	/	-4	0	14
CC(=O)c1cccc(NC(=O)CSCc2ccc(Br)cc2)c1	2	2	3	i	-3	1	-1	3
CCc1c(C(=O)N/N=C/c2cn[nH]c2-c2ccc(F)cc2)csc1C	18	-6	6	i	/	-1	-1	-2
CC(/C=C/c1ccccc1)=N/NC(=O)c1nc2nc(C)cc(C)n2n1	-2	8	-2	i	-2	1	-2	-2
O=C1CCC(C(=O)Nc2cc(C(F)(F)F)ccc2-n2cncn2)=NN1	-1	-8	11	i	-15	-7	-3	-4
COc1cccc(CN2CCN(C(=O)c3cc(-c4cccnc4)nc4ccc(C)cc34)CC2)c1	1	8	4	i	/	-5	-4	13
O=C(Nc1ccc(Cc2ccncc2)cc1)C1CC1	/	-1	-22	i	-9	-2	-5	-14
Cc1ccc(C(=O)Cn2c(=N)n(N)c3ccccc32)cc1	-73	6	0	i	-7	-2	-3	8
CC1=C(C(=O)Nc2ccccc2F)C(c2ccsc2)C2=C(CC(c3ccccc3)CC2=O)N1 (stereo not given)	/	-5	13	i	0	-5	-7	-5
O=c1[nH]c(=S)[nH]c2c1C(c1ccc(Br)cc1)c1c([nH]c(=S)[nH]c1=O)O2	7	83*	6	i	-17	-5	-1	93*
N#CCSc1nnc(SCC#N)s1	8	29	-6	i	/	-1	2	21
CCN1C(=O)N[C@@H](c2ccc(Br)cc2)C(C(=O)OC)=C1C	-21	0	-8	/	4	2	1	3
COc1nonc1NC(=O)CSc1nc2ccccc2[nH]1	/	-5	-6	i	-20	1	1	-2
Nc1c(N)c2ccccc2oc1=O	/	13	-13	i	-18	2	3	32
CCn1c(SCC(=O)Nc2sc3c(c2C(N)=O)CCC(C)C3)nnc1-c1ccco1 (stereo not given)	/	51	-11	i	/	-3	1	19	eIF4H inh retest=38;PABP FP inh retest=27
CCN(CC)CCCNC(=O)c1cc(-c2cccc(Cl)c2)on1	-14	-2	/	i	/	10	2	9
CCN(CC)C(=O)C(=O)c1cccn1-c1cccc(-n2cccc2C(=O)C(=O)N(CC)CC)c1C#N	/	-2	-19	i	-26	-2	-4	-8
O=C(NC(=S)Nc1ccccc1N1CCCC1)c1ccccc1Br	5	3	3	i	-22	3	6	-8
CCCOc1ccc(/C=N/NC(=O)CN(c2ccc(OCC)cc2)S(C)(=O)=O)cc1	10	-8	-7	i	-8	8	0	-3
CCSc1nnc(NC(=O)CCc2ccc(OC)cc2)s1	-4	-9	-24	i	/	2	1	6
NC(=O)N1CCC2(CC1)NC(=O)N(c1ccccc1)N2	-12	46	-3	i	/	-7	1	-2
Cn1c(=O)c2c(nc3n2CC(COc2ccc(Cl)cc2)O3)n(C)c1=O (stereo not given)	-9	-4	-3	i	-12	1	-7	-16
OCC1(Cc2ccccc2C(F)(F)F)CCN(Cc2ccc3c(c2)CCO3)CC1	-12	-8	-11	i	/	1	4	1
COc1ccc(C(=O)NNC(=O)CSc2nnc(C)n2C)cc1	-36	54	1	/	14	-1	1	34	eIF4H inh retest=6;PABP FP inh retest=6
Cc1ccn2cc(CCNC(=O)C3CCCCC3)nc2c1	1	-1	10	i	-9	4	3	-12
Nc1c(C(=O)Nc2ccccc2F)sc2nc(-c3cccnc3)ccc12	12	-12	17	i	-14	-16	0	8
CC1CN(S(=O)(=O)c2cccc(C(=O)N(CCc3ccccc3)Cc3ccccc3)c2)CC(C)O1 (stereo not given)	/	/	16	i	11	-4	-11	/
CCCN(C(=O)c1cccs1)c1nnc(-c2ccncc2)s1	-8	0	-9	i	-3	0	2	-13
CC1CCCN(CC(O)COc2ccc3c(c2)OCO3)C1 (stereo not given)	-2	-3	-7	i	/	2	9	6
O=C(Nc1ccc(F)c(Cl)c1)c1cc(C2CCCCN2C(=O)CCCc2ccccc2)on1 (stereo not given)	-16	/	/	/	-10	-2	-14	/
CC(=O)c1ccc(N2C(=O)C3C4C=CC(CC4)C3C2=O)cc1 (stereo not given)	11	-14	9	i	-3	2	0	0
Cn1c(SCC(=O)Nc2ccc(F)cc2)nc2c(c1=O)SCC2	7	1	-5	i	-16	-2	-12	-8
Cc1ccc(C)c(C(=O)Nc2cc(C)nn2-c2nc(C)cc(C)n2)c1	-32	-3	41	i	/	-5	-13	3
CCn1c(=O)cc(OCC(=O)NCCCN2CCCC2=O)c2ccccc21	-19	-4	5	i	3	/	/	-1
Cc1ccnc(Nc2nc3ccccc3o2)n1	14	-12	10	i	-66	0	2	12
C[C@H]1CN([C@@H](C)CO)C(=O)CCCn2nncc2CO[C@H]1CN(C)S(=O)(=O)c1ccc(Oc2ccccc2)cc1	-12	/	/	/	5&8&16	6	-11	/
O=C(CCCCN1CCCCC1)c1ccc2c(c1)Cc1ccccc1-2	-12	16	-9	i	/	3	-1	15
N=c1n(CC(=O)c2ccc([N+](=O)[O-])cc2)c2ccccc2n1Cc1ccccc1Cl	-6	-6	7	/	/	-6	-3	-8
CN1CCN(C(=O)c2cnn(-c3ccccc3)c2NC(=O)c2ccccc2)CC1	-63	12	-1	i	/	0	5	-2
CCSc1nnc(NC(=O)NC2CCCCC2)s1	-15	5	-5	i	-9	7	0	-6
COCCOC(=O)c1c(C)oc2ccc(OC(=O)c3ccco3)cc12	-133	3	1	i	/	4	3	1
CC(C)c1ccc(NC2CCCN(C(=O)c3cccc4nccnc34)C2)cc1 (stereo not given)	-10	-4	-12	i	-5	0	0	-8
Cc1ccc(C(OCCN(C)C)c2cccc(C(F)(F)F)c2)cc1 (stereo not given)	-5	-4	-1	i	0	-7	-5	0
CN(C)c1ccc(NC(=O)c2ccc([N+](=O)[O-])cc2Cl)cc1	-27	5	-13	/	/	7	7	-7
COc1ccc(CC(=O)Nc2ccc(S(=O)(=O)Nc3nc(C)cc(C)n3)cc2)cc1	-26	-4	/	i	2	-7	-2	-2

5 records picked at random from the list so far:
SMILES	Env fusion inh	eIF4H inh	CSC inhib	Rce1 inhib	UUG fidelity	MT1-MMP act inh	MT1-MMP act inh RFP	PABP FP inh	others
CN1CCN(C(=O)c2cnn(-c3ccccc3)c2NC(=O)c2ccccc2)CC1	-63	12	-1	i	/	0	5	-2
CN(C)c1ccc(NC(=O)c2ccc([N+](=O)[O-])cc2Cl)cc1	-27	5	-13	/	/	7	7	-7
Cc1ccc(C(OCCN(C)C)c2cccc(C(F)(F)F)c2)cc1 (stereo not given)	-5	-4	-1	i	0	-7	-5	0
C[C@H]1CN([C@@H](C)CO)C(=O)CCCn2nncc2CO[C@H]1CN(C)S(=O)(=O)c1ccc(Oc2ccccc2)cc1	-12	/	/	/	5&8&16	6	-11	/
Cn1c(SCC(=O)Nc2ccc(F)cc2)nc2c(c1=O)SCC2	7	1	-5	i	-16	-2	-12	-8

Next entries:
SMILES	Env fusion inh	eIF4H inh	CSC inhib	Rce1 inhib	UUG fidelity	MT1-MMP act inh	MT1-MMP act inh RFP	PABP FP inh	others
COC(=O)CCCC(=O)N(C)CC1CCCN(CCc2ccccc2C)C1 (stereo not given)	3	/	1	i	11	-2	-6	/
CC1CC(C)(C)NC(=S)N1CCC(=O)N1CCN(c2ccccc2)CC1 (stereo not given)	-18	-5	-4	i	-18	4	3	1
COc1ccc2c(c1)Cc1sc(NC(=O)c3ccccc3)nc1-2	-70	12	1	i	-14	-2	-14	23
COc1ccc(C2=NS(=O)(=O)N(C)C(C(=O)N(C)Cc3ccccc3)=C2)cc1OC	-1	-1	/	i	2	-2	-6	0
COc1cccc(OCCNC(=O)Nc2cc(F)c(F)cc2Cl)c1	20	-8	-1	i	-2	7	1	-2
C[C@@H]1CC=C[C@H]2[C@H]1C(=O)N(Cc1ccccc1)[C@H]2c1ccc2ccccc2c1/C=C/c1ccccc1	34	-8	32	i	-5	-9	-15	2
CCC(=O)OCc1c(C(F)(F)F)nn(C)c1Oc1cccc(C(F)(F)F)c1	-35	5	-1	i	-5	-1	3	0
CC1=CC(C)C2C(=O)N(CCCN(C)C)C(=O)C2C1 (stereo not given)	/	-9	-14	i	-19	-3	4	4
CC(=O)c1cc2c(cc1N(C(=O)Cn1nnc3ccccc31)C(C(=O)NCCC(C)C)c1cccnc1)OCO2 (stereo not given)	-6	-6	17	i	-5	2	0	12
c1coc(-c2nnc(-c3ccco3)nn2)c1	10	99*	-3	i	-8	-2	2	76*
C/C(=N\NC(=S)NC1CCCCC1)c1ccccc1	14	8	3	i	-36	-2	-5	-2
O=C1CN(C(=O)c2ccccc2)C(c2ccccc2)c2cc(Cl)ccc2N1 (stereo not given)	18	-8	0	i	-2	-4	-5	-3
Cc1cccc(OCCOC(=O)C2CCN(S(=O)(=O)c3cccs3)CC2)c1	/	-5	-10	i	-16	-2	5	-3
Cc1cccc(N2CCN(C(=O)CC(NC(=O)c3ccccc3)c3ccccc3)CC2C)c1 (stereo not given)	-5	-12	27	i	2	-2	-4	16
COc1cc2c(cc1OC)C1=C(C#N)CC/C(=N\S(=O)(=O)c3ccccc3)N1CC2	-19	0	1	i	-6	0	3	2
O=C(/C=C/c1ccc2c(c1)OCO2)N1CCN(c2n[nH]c(=O)[nH]c2=O)CC1	4	-8	2	i	3	7	-1	-6
CN1CCCN(C(=O)c2cccc3ccccc23)CC1	-11	-6	-2	i	-5	1	2	-10
CCCCC(=O)OCC(=O)c1[nH]c(C)c(C(C)=O)c1C	7	3	-11	i	/	0	-1	-4
CCCCCC[n+]1ccccc1/C=C/c1ccc(N(C)C)cc1	42	/	/	/	16	-21	28	/
O=C(NCc1ccncc1)c1cc(C(=O)C2CCCCC2)c[nH]1	6	1	2	i	-4	-1	4	-6
CCOc1ccccc1NS(=O)(=O)c1c[nH]c(C(=O)OC)c1	0	-11	11	i	11	-1	2	-9
CN(Cc1cn(-c2ccccc2)nc1-c1ccc(Cl)cc1)C(=O)CCC(=O)O	2	-3	-13	i	/	2	1	2
Cc1nc(-c2ccccc2)nc2n[nH]c(N)c12	-23	/	0	i	-23	0	0	/
O=[N+]([O-])c1cccc2cnccc12	?	/	/	/	-24	-9	-3	/
CC1(Oc2cccc(C#N)c2)CCN(Cc2ccccc2OC(F)F)C1 (stereo not given)	11	/	/	/	0	-4	4	/
COc1cccc(Nc2nc3ccccc3n3cnnc23)c1	-33	-1	-19	i	-23	2	-2	7
COc1ccc(S(=O)(=O)Nc2cccc3c2O[C@H](CN(C)CC2CC2)[C@@H](C)CN([C@H](C)CO)C3=O)cc1	-21	/	-10	/	-5	3	3	/
O=C(Nc1ccc2c(c1)CCC2)c1cccc(F)c1	-44	-6	8	i	-19	3	5	18
S=c1[nH]nc(-c2ccccn2)n1/N=C/c1ccccc1	/	7	-9	i	/	4	5	-2
CC(=O)CSc1nnc(-c2cnccn2)n1-c1ccccc1	-67	-5	/	i	-11	-4	2	-4
CN1CCN(C(=O)c2cc3c(c(-c4cccc(C#CC(C)(C)O)c4)n2)[C@@H](CCO)N(S(=O)C(C)(C)C)C3)CC1 (stereo not given in full)	25	/	/	/	3	1	2	/
O=C(NN1C(=O)c2ccccc2NC1c1ccc([N+](=O)[O-])o1)c1ccc([N+](=O)[O-])cc1 (stereo not given)	14	4	-11	i	/	0	-3	-3
COC(=O)[C@H](Cc1ccc(O)cc1)NCCCn1cnc(C(=O)Nc2ccc(C)c(C)c2)n1	-7	/	/	/	7	1	1	/
